Screens (PubChem)
S aureus helic = blocks Staphylococcus aureus DNA helicase; AID 485395; inhibition, %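 (tested at about 80 µM)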; purified S. aureus helicase, fluorescence unwinding assay; about half of the hits fall short of the stated cut; 0.05% of 120,000 active;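 active = both duplicates at 50% or more, or one of them with a favoured structure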;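 also: 0% = mean of negative control wells and 100% = mean of positive control wells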
MgrA-DNA mod = S. aureus MgrA-DNA binding modulation. fluorescence polarization. inhibition, %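 (about 10 µg/mL by stock and volumes)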. AID 602314. 0.13% of 84,000 active;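 active = above 50% in either of two replicates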;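 also: 0% = protein plus DNA without compound and 100% = DNA alone without protein; higher means less MgrA bound to DNA so lower polarization; one replicate is shown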
An asterisk follows results filed as active; · = not tested or not shown; & = joins results of further samples.

| structure | S aureus helic | MgrA-DNA mod |
| --- | --- | --- |
| CC(C)(C)C(=O)Nc1c2c(nn1-c1ccc(F)cc1)CS(=O)(=O)C2 | -19 | · |
| O=C(NC1CCCCC1)c1ccc(COCC(F)(F)F)o1 | 9 | 0.0 |
| O=C(CN(C1CCCCC1)S(=O)(=O)c1ccccc1)NCc1ccco1 | 9 | 4.1 |
| O=C1OC(Oc2cccc3cccnc23)(c2ccccc2)c2ccccc21 (configuration not stated) | 1 | 1.0 |
| CC1CCCC(C)N1C(=O)COC(=O)c1ccc(C#N)cc1 (configuration not stated) | 20 | -1.5 |
| CCc1ccc(S(=O)(=O)NC2CCCCNC2=O)cc1 (configuration not stated) | · | 0.6 |
| CCc1cccc(CC)c1NC(=O)c1c(Cl)nc2sccn12 | -3 | · |
| NC(=O)c1ccccc1NC(=O)C1SC(=Nc2cccc(Cl)c2)C(C(=O)NCc2ccco2)=C1N (configuration not stated) | -34 | · |
| Cc1noc(C)c1C(=O)OCC(=O)NCC12CC3CC(CC(C3)C1)C2 | 23 | · |
| COc1cc(CNc2nn[nH]n2)cc(Br)c1OCc1ccc(Cl)cc1 | 6 | 4.5 |
| CC(=O)N=c1scc(-c2ccccc2)n1-c1ccc(C)cc1 | -18 | · |
| COc1cc(C(=O)N2C(C)CCCC2C)cc(OC)c1OC (configuration not stated) | · | -1.1 |
| COc1cc(C(=O)N(Cc2ccco2)Cc2ccccc2F)cc(OC)c1OC | -6 | · |
| O=C(Nc1ccc(Cl)cc1C(O)c1ccccc1)c1cnn2c1NC(c1cccs1)CC2C(F)(F)F (configuration not stated) | · | 3.0 |
| O=C1/C(=C/c2cccs2)CCCc2ccccc21 | -36 | · |
| COc1ccc(CCC(=O)CCc2ccc(OC)cc2)cc1 | · | 1.2 |
| COc1ccc(C2=NN(C(=O)CCCC(=O)O)C(c3ccc(Cl)cc3)C2)cc1 (configuration not stated) | · | -2.7 |
| C=CCN(CC=C)C(=O)CSc1nc(N)cc(N)n1 | 10 | · |
| Cn1c(=NC(=O)c2ccco2)sc2cc(S(C)(=O)=O)ccc21 | 5 | · |
| N#C/C(=C\c1ccc(OCC(N)=O)cc1)c1ccccc1 | 17 | -0.4 |
| S=c1scc(-c2ccc(Cl)c(Cl)c2)n1Nc1ccccc1 | · | -0.5 |
| CCC1=C(c2ccc(C)cc2)S(=O)(=O)N=C1N1CCC(C(=O)N(C)Cc2ccco2)CC1 | -5 | · |
| CS/C(=N\S(=O)(=O)/C=C/c1ccccc1)NN | · | -2.8 |
| CCn1cc(C(=O)OCC(=O)N2CCCC(C)C2)c(=O)c2ccc(C)nc21 (configuration not stated) | -32 | · |
| CCOC(=O)C1=C(C)N=c2s/c(=C\c3ccc(N4CCCCC4)o3)c(=O)n2C1c1ccc2c(c1)OCO2 (configuration not stated) | · | -0.2 |
| COC(=O)C1=C(Nc2ccc(OC(F)(F)F)cc2)CSC1 | · | 0.3 |
| Cc1ccc(C)n1-c1sccc1C(=O)N1CCN(S(=O)(=O)c2cccc(F)c2)CC1 | 6 | · |
| CC1=C(C(=O)Nc2ccccc2)C(c2ccccc2)n2c(s/c(=C\c3cccs3)c2=O)=N1 (configuration not stated) | 9 | 2.1 |
| O=C(N/N=C1\CCc2ccccc21)c1ccccn1 | 6 | · |
| O=C(NCCNC1CCCC1)c1ccco1 | 0 | 15 |

Record cards (already shown). Values in the order: S aureus helic | MgrA-DNA mod
Profile of Cc1ccc(C)n1-c1sccc1C(=O)N1CCN(S(=O)(=O)c2cccc(F)c2)CC1 = 6 | ·
Profile of Cn1c(=NC(=O)c2ccco2)sc2cc(S(C)(=O)=O)ccc21 = 5 | ·
Profile of CS/C(=N\S(=O)(=O)/C=C/c1ccccc1)NN = · | -2.8

Additional entries follow:
| structure | S aureus helic | MgrA-DNA mod |
| --- | --- | --- |
| CCCC(=O)Nc1cc(-c2nnc(OC)c3ccccc23)ccc1N1CCOCC1 | -12 | · |
| Cc1ccc(S(=O)(=O)NCC(=O)NC2CCCC2)cc1 | 4 | · |
| O=C(NNC1=NCCCCC1)c1ccc(Br)cc1 | -2 | · |
| CCN(CC)S(=O)(=O)c1ccc(NC(=O)/C=C/c2ccc(F)cc2)cc1 | -5 | -0.5 |
| O=C(COC(=O)c1ccccc1)Nc1cccc2nsnc12 | -5 | · |
| COC(=O)c1cccc(S(=O)(=O)N2CCC(NC(=O)Nc3cccc(F)c3)CC2)c1 | 4 | -0.3 |
| C=CCNC(=O)c1c(C)cc(C)cc1C | 4 | 5.5 |
| O=C1CN(C(=O)c2ccc(Cl)c(S(=O)(=O)N3CCCCCC3)c2)c2ccccc2N1 | -9 | · |
| CCOC(=O)N1CCN(C(=O)c2ccc(N3CCCCC3)c(NC(=O)Nc3ccc(Cl)c(Cl)c3)c2)CC1 | 15 | · |
| O=C(CSc1nc2ccccc2c(=O)n1C1CC1)c1ccc(Cl)cc1 | -7 | -0.4 |
| CCOC(=O)C(Sc1nc(C)cc(=O)[nH]1)c1ccccc1 (configuration not stated) | 13 | · |
| O=C(CC1Sc2ccccc2NC1=O)Nc1ccc2c(c1)OCO2 (configuration not stated) | -7 | · |
| COC(=O)C(C)N(C#N)c1nc(C)nc(C)n1 (configuration not stated) | 4 | -1.1 |
| OC(c1ccccc1)c1nnc(-c2ccccc2)o1 (configuration not stated) | -5 | 3.2 |
| O=c1[nH]nc2n1CCCCC2 | 0 | · |

Already shown: 4 of the compounds above.
| structure | S aureus helic | MgrA-DNA mod |
| --- | --- | --- |
| O=C(CC1Sc2ccccc2NC1=O)Nc1ccc2c(c1)OCO2 (configuration not stated) | -7 | · |
| COC(=O)C(C)N(C#N)c1nc(C)nc(C)n1 (configuration not stated) | 4 | -1.1 |
| OC(c1ccccc1)c1nnc(-c2ccccc2)o1 (configuration not stated) | -5 | 3.2 |
| O=c1[nH]nc2n1CCCCC2 | 0 | · |

Later entries.
| structure | S aureus helic | MgrA-DNA mod |
| --- | --- | --- |
| CCOC(=O)CSc1nc2sc3c(c2c(=O)n1-c1ccccc1)CCC3 | · | 0.3 |
| CC(C)(Oc1ccc(CCNC(=O)c2ccc(Cl)cc2)cc1)C(=O)O | · | 1.2&-3.2&-0.1 |
| CC/C(=N/NC(=O)c1ccccc1C)c1ccc(O)cc1 | · | 1.0 |
| CC(=O)N1CCC(N(C(=O)Nc2ccccc2)C2CCCC2)CC1 | 9 | -0.6 |
| O=C(Oc1ccc(-c2nnco2)cc1)C1c2ccccc2Oc2ccccc21 | -2 | · |
| O=C(Cn1cc(S(=O)(=O)N2CCCC2)c(S(=O)(=O)N2CCCC2)c1)N1CCCCCC1 | 5 | · |
| Cc1nc2ccccc2c(=O)n1-c1cccc(NC(=O)c2ccc(Br)o2)c1 | -7 | · |
| COc1ccc(/C=C2/SC(=S)NC2=O)cc1COc1ccc(F)cc1F | -15 | 3.7 |
| O=C(Nc1ccnn1Cc1ccccn1)c1cccnc1Oc1ccccc1 | -3 | · |
| CC(C)(C)c1nnc(Nc2ccc(Nc3ccccc3)cc2)[nH]c1=O | -13 | · |
| C1CCOC2(CCC3(CC2)OCCCCO3)OC1 | 1 | 0.9 |
| Cc1ccc(Cl)cc1NC(=O)CC(O)(C(F)(F)F)C(F)(F)F | 5 | 0.1 |
| Nc1ncnc(SCc2c(Cl)cccc2Cl)n1 | · | 0.4 |
| Cc1noc(-c2ccc(O)cc2O)c1-c1ccc2c(c1)OCCCO2 | 4 | · |
| Cc1ccc(C(=O)OCc2nc3ccccc3s2)cc1 | 14 | · |
| CCOc1ccc(OCCSc2nc3ccccc3n2Cc2ccccc2)cc1 | 19 | 0.9 |
| COc1ccc(CN(C)C(=O)C2CC(=O)N(c3ccc4c(c3)OCCO4)C2)c(OC)c1 (configuration not stated) | -6 | · |
| COc1ccc(S(=O)(=O)N2CCC(C(=O)N3CCCCCC3)CC2)cc1C | -1 | -1.6 |
| CC(C)C(NC(=O)C12CC3CC(CC(C3)C1)C2)C(=O)Nc1nc2ccccc2s1 (configuration not stated) | 3 | -0.8 |
| Cn1c(-c2ccc(N)cc2)nc2cc(N)ccc21 | 6 | · |
| O=C(Oc1ccc2c(c1)OCO2)C1CCCCN1S(=O)(=O)c1ccccc1 (configuration not stated) | 2 | · |
| COc1ccc(C2SCCN2C(=S)Nc2cccc(C(F)(F)F)c2)cc1 (configuration not stated) | 11 | 1.9 |
| O=C(O)C1c2ccccc2C(=O)N(Cc2ccc(F)cc2)C1c1cccnc1 (configuration not stated) | · | 2.4 |
| C/C(=N\NC(=O)NC1CCCCC1)c1ccc2c(c1)OCO2 | 2 | · |
| Cc1nn(Cc2nnc(SCc3c(Cl)cccc3Cl)o2)c(C)c1Br | · | 0.7 |
| C=CCN1CN=C(NS(=O)(=O)c2ccc(NC(C)=O)cc2)NC1 | -38 | · |
| c1ccc(-c2csc3ncnc(NCCCn4ccnc4)c23)cc1 | · | 0.1 |
| Cc1ccc(C2C(NC(=O)c3ccccc3)C(=O)N2c2ccc(C)cc2)cc1 (configuration not stated) | 9 | -0.8 |
| COc1ccc(O)c(CN(C)CCN(C)C)c1 | -13 | -1.6 |
| COc1ccc(-c2[nH]ncc2C(=O)NCCc2ccccc2)cc1 | 10 | 1.0 |
| CC1=C(C#N)C(c2cccnc2)C(C#N)=C(C)N1 | -5 | · |
| Cc1ccc(O)c(C2=NNC(O)(C(F)(F)F)C2)c1 (configuration not stated) | -24 | · |
| CCN(CC)c1ccc(C2CC(c3ccc(Br)cc3)=NN2C(=O)CCC(=O)O)cc1 (configuration not stated) | · | -1.6 |
| CCOC(=O)c1oc2ccc(S(=O)(=O)Nc3noc4ccccc34)cc2c1C | -8 | · |
| O=C(/C=C/c1cn(-c2ccccc2)nc1-c1ccc(F)cc1)N1CCN(C2CCS(=O)(=O)C2)CC1 (configuration not stated) | 22 | · |
| Cc1cc2ncn(S(=O)(=O)c3ccc(S(=O)(=O)NC4CCCCC4)cc3)c2cc1C | -4 | -0.2 |
| CCOC(=O)C1(C(=O)OCC)CCN(S(=O)(=O)c2ccc(C)cc2)c2ccccc2C1=O | -1 | 3.0 |
| O=C(CCCC(=O)Nc1nccs1)Nc1nccs1 | 7 | -1.2 |
| Cc1ccc(NC(=O)c2c(C)nc3sc(C(=O)N4CCCC4)c(N)c3c2-c2ccco2)c(C)c1 | 12 | · |
| Cc1nn(CC(=O)O)c(=O)c2cccn12 | 3 | -0.9 |
| CC(C)(C)c1cc(C(=O)NNC(=O)c2ccc(Cl)cc2Cl)cc(C(=O)NNC(=O)c2ccc(Cl)cc2Cl)c1 | · | 3.8 |
| COc1cccc(NC(=O)NCCN2CCN=C2C)c1 | · | -2.5 |
| Cn1nc(C2CC2)cc1NC(=O)Nc1csc2ccccc12 | -12 | · |
| O=C(N/N=C1\CCS(=O)(=O)c2ccc(F)cc21)c1ccc2c(c1)OCO2 | 1 | · |
| COc1cc(/C=C/C(=O)N2CCC=CC2=O)cc(OC)c1OC | · | -1.8 |
| COc1ccc(S(=O)(=O)N(CC(=O)NCCSc2ccccn2)c2ccc(C)cc2)cc1OC | · | 0.3 |
| C(=C\c1ccccc1)/CN1CCN(c2ccccc2)CC1 | 7 | -2.8 |
| COc1cccc(N2C(=O)CC(c3c[nH]c4ccccc34)C2=O)c1 (configuration not stated) | 8 | 1.7 |
| COC(=O)c1c(C)n(S(C)(=O)=O)c2ccc(N(C(C)=O)S(C)(=O)=O)cc12 | 3 | -1.6 |
| CCN(CC)C(=S)Nc1ccc2oc(N(C)C)nc2c1 | -2 | 3.5 |
| CC(=O)Nc1ccc(OCc2cn3cc(C)ccc3n2)cc1 | -2 | · |
| CC(Sc1nnc(-c2ccco2)o1)C(=O)NC1CCCC1 (configuration not stated) | 11 | · |
| O=c1c(Cl)c[nH]n(-c2ccccc2)c1=O | 6 | -0.8 |
| C=C(C)c1cccc(C(C)(C)NC(=O)NCCc2ccc(F)cc2)c1 | 15 | 0.9 |
| COc1cccc(C2(O)CCN(C(=O)c3cccs3)CC2)c1 | 1 | -2.1 |
| Cc1cc(C)c(C)c(S(=O)(=O)N2CC(C)OC(C)C2)c1C (configuration not stated) | -2 | · |
| COC(=O)c1ccc(OCC(O)CN2C(C)CCCC2C)cc1 (configuration not stated) | -15 | · |
| Clc1cc(Cl)c(Cl)c(-n2cccc2)c1Cl | · | -3.4 |
| O=C(COc1ccc(Oc2ccccc2)cc1)NCCCn1ccnc1 | -22 | 0.1 |
| O=c1cc(CSc2ccccc2)c2ccc(O)cc2o1 | · | -2.2 |

New compounds follow.
| structure | S aureus helic | MgrA-DNA mod |
| --- | --- | --- |
| O=C(c1ccccc1)c1cc(Cl)ccc1N=Cc1ccsc1 | -60 | 1.1 |
| CCCCOc1ccc(-c2nnc(-c3ccco3)n2-c2ccccc2)cc1 | -6 | 0.7 |
| CN(Cc1ccccc1)C(c1ccc(F)cc1)c1c(O)[nH]c(=O)[nH]c1=O (configuration not stated) | 6 | · |
| Cc1cccc(C(=O)NCC(=O)N(C)Cc2nc3ccccc3c(=O)[nH]2)c1 | -6 | · |
| O=C(NNC(=S)NC1CC2C=CC1C2)c1ccco1 (configuration not stated) | · | -1.2 |
| OC(c1ccccc1)c1ccc2ccccc2c1 (configuration not stated) | · | -0.5 |
| CCOc1ccc(NC(=O)CC2(CC(=O)O)CCCC2)cc1 | -5 | · |
| Cc1ccc2c(c1)sc1nc(-c3ccccc3Cl)cn12 | 4 | 2.3 |
| COc1cc(C(=O)N(CCC#N)C2CC(C)CC(C)(C)C2)cc(OC)c1OC (configuration not stated) | · | 0.8 |
| COc1cccc(N(Cc2ccc(C)cc2)C2=NC3CS(=O)(=O)CC3S2)c1 (configuration not stated) | 0 | 1.7 |
| CCOP(=O)(CC)CC(=O)O (configuration not stated) | 2 | -4.0 |
| COC(CNC(=O)C1CCC(CNS(=O)(=O)c2ccccc2)CC1)OC (configuration not stated) | 9 | -0.6 |
| Cn1c(CNC(=O)C2CCCCC2)cc2cc(Cl)ccc21 | -3 | 0.1 |

These rows are one share of the data (hit frequency here may not be typical).
